Screens as filed in PubChem.
PINK1 expr mod: A Quantitative High throughput Screen to Identify Chemical Modulators of PINK1 Expression; PINK1 immunofluorescence, high-content cytometry, 24 h; Potency, µM (highest dose often 76.6 µM), without a hit: at the highest dose activation (PINK1 increase), usual class: activators; 0.2% of 410,000 active; AID 624263, 2012; active = well fitted activation curve with a large enough effect; inconclusive = small, poorly fitted or top-dose-only effect; inactive = flat fitted curve, though single readings scatter; cell line not stated here;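 note: potency is the fitted concentration of half-maximal effect; % of control where 0% means no effect; nearly all actives have a fitted effect of over 65% in size; a mitochondrial uncoupler was the plate control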
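Compound titrations (5 concentrations, 24 h) on a stable cell line; DMSO and CCCP controls. Endpoint: fixed-cell PINK1 immunofluorescence with mitochondrial, cell and nuclear markers, scanned by microplate cytometer.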
ClpP mod: qHTS Assay for Activators of ClpP; ATP-dependent Clp protease proteolytic subunit (Bacillus subtilis (strain 168)), P80244; 1.9% of 340,000 active; Potency, µM (top dose mostly 57.5 µM), without a hit: at the top dose activity change, negative = active; AID 651965, 2013; purified B. subtilis ClpP, FRET peptide cleavage, 20 min; active = well fitted falling curve with a large enough effect; inconclusive = small, poorly fitted or top-dose-only effect; inactive = no such curve, though single readings can be large or run the other way; note: potency is the fitted concentration of half-maximal effect; the source files actives as falling curves though it sought activators and does not explain the sign; nearly all actives have a fitted effect of over 65% in size; many hits overshoot -100%
Target sequence (P80244 whole entry, looked up): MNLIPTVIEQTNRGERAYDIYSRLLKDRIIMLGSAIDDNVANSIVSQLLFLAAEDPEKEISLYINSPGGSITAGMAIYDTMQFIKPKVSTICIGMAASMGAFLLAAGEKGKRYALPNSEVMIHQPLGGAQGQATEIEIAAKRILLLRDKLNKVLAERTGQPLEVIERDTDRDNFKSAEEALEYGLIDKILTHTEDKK
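FRET quenching reversal measured ClpP activation: 10 microg/mL B. subtilis ClpP at pH 8 with the FRET-FV decapeptide, read at 430 nm after 320 nm excitation. The 20-min minus 0-min signal was scaled between DMSO/no-enzyme wells and ADEP (5.8 microM final).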
TRPV1 PAM: HTS Assay for Compounds that Act as Potentiators of the Vanilloid Receptor 1. Transient receptor potential cation channel subfamily V member 1 (Homo sapiens), Q8NER1. TRPV1-expressing cells, Fluo-8 calcium influx, capsaicin EC20 potentiation; host cell line not named in the record; control for the full effect not named in the record. potentiation, % at 8.33 µM. 0.02% of 320,000 active. AID 540277, 2011; active means potentiation above 80%; inconclusive means 30% to 80%; inactive means below 30%; note: 0% is about no effect
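Fluo-8 calcium influx in TRPV1-expressing cells, kinetic read (ex 480/em 520 nm). Compound added and read 3 min for agonist activity, followed by capsaicin at EC20 final and 2 min further read for enhancement.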
Sfp PPTase inh: qHTS Assay for Inhibitors of Bacillus subtilis Sfp phosphopantetheinyl transferase (PPTase); 4'-phosphopantetheinyl transferase ffp (Bacillus subtilis), Q9F4F7; Biochemical Sfp PPTase activity, qHTS; Potency, µM, for the others: max response, negative = inhibition, usual class: inhibitors; 3.5% of 310,000 active; AID 1490, 2009; active = well fitted inhibition curve with a large enough effect; inconclusive = small, poorly fitted or top-dose-only effect, or another doubt; inactive = no such curve, though single readings can be large or run the other way;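 note: the enzyme is Sfp with the accession as filed and its product quenches rhodamine fluorescence; potency is the fitted concentration of half-maximal effect; 0% = enzyme reaction without inhibitor and -100% = no enzyme wells; top concentration of the series not given in the record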
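After 15 min at room temperature with compound, 15 nM Sfp received 5 uM rhodamine-CoA plus 12.5 uM BHQ-2-ybbR (50 mM Hepes pH 7.6, 10 mM MgCl2). Rate came from the fluorescence difference over 30 min, ex 525/em 598 nm.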
TRPML1 inh: qHTS for Inhibitors of the Human Mucolipin Transient Receptor Potential 1 (TRPML1). TRPML1-inducible cells, Ca2+ dye fluorescence, FDSS; stronger effect = lower value; inhibition of EC80 agonist-evoked calcium signal. activity change, negative = inhibition, % (concentration not given with the values). 0.02% of 390,000 active. AID 624415, 2012; in the data active means activity change below about -50%; inconclusive means about -30% to -50%; inactive means above about -30%;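 note: stimulus is agonist 54-4 at its EC80 concentration; % is set by controls: 0 for no effect and ±100 for the full control effect; compound concentration not given in the record; the text of the record puts the active cut at -80%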
Target sequence (Q9GZU1 whole entry, looked up): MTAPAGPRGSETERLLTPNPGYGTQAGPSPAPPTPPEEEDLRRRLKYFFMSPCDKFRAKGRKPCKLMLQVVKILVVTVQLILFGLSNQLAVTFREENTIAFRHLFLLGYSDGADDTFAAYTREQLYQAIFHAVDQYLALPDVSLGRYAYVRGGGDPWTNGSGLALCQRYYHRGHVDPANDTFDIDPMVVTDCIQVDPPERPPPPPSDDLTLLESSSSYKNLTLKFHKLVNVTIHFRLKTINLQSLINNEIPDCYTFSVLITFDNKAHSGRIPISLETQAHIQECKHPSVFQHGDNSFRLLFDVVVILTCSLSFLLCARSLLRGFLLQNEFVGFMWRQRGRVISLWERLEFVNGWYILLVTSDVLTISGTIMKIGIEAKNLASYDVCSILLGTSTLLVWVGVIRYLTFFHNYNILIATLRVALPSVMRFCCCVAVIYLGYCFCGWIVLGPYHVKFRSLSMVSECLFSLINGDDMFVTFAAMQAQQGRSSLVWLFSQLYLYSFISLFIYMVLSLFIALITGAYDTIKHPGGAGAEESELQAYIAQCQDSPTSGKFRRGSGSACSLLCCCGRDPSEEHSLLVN
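Calcium fluorescence in TRPML1-DL cells induced overnight with Tet: a 110 s read after compound pin addition, then a 110 s antagonist read after challenge with 54-4 at 4 uM final (EC80).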
Menin MLL FP FL: qHTS Assay for Inhibitors Targeting the Menin-MLL Interaction in MLL Related Leukemias: Competition With Fluorescein Labeled MLL-derived Peptide; 290,000 tested, under 10 active; AID 1766, 2009; Fluorescence polarization, fluorescein-MLL peptide displacement from menin; FP activity change, % at 61.4 µM; inconclusive = falling polarisation curve, or a change in total fluorescence; inactive = total fluorescence flat and polarisation flat or rising; no compound was filed as active; the % refers to the polarisation; negative = inhibition;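 note: % of control where 0% means no effect; inhibitors lower the polarisation; unlabelled MLL peptide was the positive control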
TRPML1 agonist: qHTS for Agonists of the Human Mucolipin Transient Receptor Potential 1 (TRPML1) | TRPML1-expressing cells, Ca2+ dye fluorescence, FDSS; host cell line not named in the record; reference of the full effect not given here | activation, % (test concentration not listed) | 0.12% of 410,000 active | AID 624414, 2012; in the data active = activation above about 50%; inconclusive = about 30% to 50%; inactive = below about 30%; note: 0% is about no effect; the text of the record puts the active cut at 80%
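Tet-induced TRPML1-DL cells, 1,500 per well, cultured overnight, were loaded with a no-wash Ca2+ dye for 45–90 min. Calcium fluorescence was recorded on the FDSS for 110 s after compound addition, before the EC80 agonist (4 uM 54-4) was added.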
The depositor's hits bear a star; ? = inconclusive; . = not tested or not shown; [ ] = dose if it differs, or a comment.

SMILES	PINK1 expr mod	ClpP mod	TRPV1 PAM	Sfp PPTase inh	TRPML1 inh	Menin MLL FP FL	TRPML1 agonist
CCOc1ccc(NC(=O)CCc2c(C)nc3c(c(C)nn3-c3ccccc3)c2C)cc1	0.5%	4.4%	.	.	8	.	1.0
COc1ccc(NC(=O)c2cc3c(=O)n(Cc4cccs4)ccc3nc2C)c(OC)c1	0.7%	-2.5%	.	.	5	.	1.2
CCCCN(C(=O)CSc1nc2ccccc2s1)c1c(N)n(CCCC)c(=O)[nH]c1=O	-0.8%	-0.8%	.	.	-20	.	-0.3
Cc1cc(/C=N/NC(=O)c2ccccc2F)c(C)n1-c1ccccc1	6.7%	0.2%	-4	2%	4	2.4	2.1
O=C(CNC(=O)c1ccccc1F)OCC(=O)N1CCCCC1	-0.1%	25µM*	3	11%	7	0.1	0.4
COc1ccc(C2C(C(=O)c3cccs3)=C(O)C(=O)N2CCN2CCOCC2)c(OC)c1 (configuration not stated)	2.2%	-6.2%	6	9%	32	3.9	0.8
COc1ccc(CNCCc2ccccc2)cc1OCC(N)=O	5.4%[38.3 µM]	0.6%	-11	18%	-14	1.6	1.4
N#Cc1ccccc1NC(=O)Nc1cccc(Cl)c1	-0.4%	28µM*	23	1%	-13	-0.1	-0.6
COc1ccc(CN2C[C@@H](CO)O[C@@H](n3cnc4c(N5CCN(c6ccccc6)CC5)ncnc43)C2)cc1	-0.3%	-21%	.	.	4	.	1.3
C#Cc1cccc(NC(=O)c2ccc(Cl)cc2Cl)c1	3.5%	-0.5%	12	2%	-5	-2.3	1.4
CC(=O)Nc1cc(Cl)c(N=Cc2ccc(O)cc2O)cc1Cl	6.7%	2.1%	11	-17%	18	2.2	0.9
CCOC(=O)C1=C(C)OC(N)=C(C#N)C1C1CCCCC1 (configuration not stated)	1.4%	0.2%	-11	15%	12	6.1	0.7
Oc1ccccc1C1C=C(c2ccc3c(c2)OCO3)NC(c2ccc(F)c(Br)c2)N1 (configuration not stated)	0.9%	.	2	.	-5	.	0.6
COc1ccc(N2C(=O)C(CC(=O)Nc3ccc(Cl)cc3)N(NC(=O)c3cccc(F)c3)C2=S)cc1 (configuration not stated)	2.9%	2.0%	16	36%[activator]	7	-0.2	1.2
O=C(c1ccc2c(c1)C(=O)N(CCCO)C2=O)c1ccc2c(c1)C(=O)N(CCCO)C2=O	6.3%	1.0%	7	2%	-5	4.8	-0.4
CCCC(C)NC(=O)COc1ccc(S(=O)(=O)c2ccc(OCC(=O)NC(C)CCC)cc2)cc1 (configuration not stated)	-0.4%	0.4%	1	2%	-27	-3.0	0.6
CCCNC(=S)NNC(=O)c1cc(-c2cccnc2)nc2ccccc12	-1.5%	1.1%	17	13%	-8	.	0.0
COC(=O)c1nc(NC(=O)c2ccc(Br)cc2)n[nH]1	-2.4%	-1.7%	16	9%	-7	2.1	0.1
CCCc1nc2ccc(Cl)cn2c1Cc1ccc(C)cc1	2.7%	-15%	.	.	28	.	-0.4
Cc1ccc(C(=O)N2CCN(Cc3ccccc3)CC2)o1	0.7%	-0.4%	-22	-1%	13	-3.1	0.2

By substructure: the entries above with bromine.
SMILES	PINK1 expr mod	ClpP mod	TRPV1 PAM	Sfp PPTase inh	TRPML1 inh	Menin MLL FP FL	TRPML1 agonist
Oc1ccccc1C1C=C(c2ccc3c(c2)OCO3)NC(c2ccc(F)c(Br)c2)N1 (configuration not stated)	0.9%	.	2	.	-5	.	0.6
COC(=O)c1nc(NC(=O)c2ccc(Br)cc2)n[nH]1	-2.4%	-1.7%	16	9%	-7	2.1	0.1

(list continues)
SMILES	PINK1 expr mod	ClpP mod	TRPV1 PAM	Sfp PPTase inh	TRPML1 inh	Menin MLL FP FL	TRPML1 agonist
COc1ccccc1N1CCN(C(=O)c2ccc(C(C)(C)C)cc2)CC1	-2.8%	0.7%	-17	-7%	24	-0.8	0.3
Cc1ccc(S(=O)(=O)N2CCOCC2)cc1C(=O)NCc1cccs1	0.6%	.	15	-8%	2	4.0	-0.8
CC1(C(=O)O)CCC(C(=O)Nc2ccc(S(N)(=O)=O)cc2)C1(C)C (configuration not stated)	0.9%	-1.5%	23	1%	1	-2.4	-0.9
COc1ccc(CC2(CO)CCN(Cc3ccc(NC(C)=O)cc3)CC2)cc1	-0.4%	.	8	12%	-4	2.7	2.0
COC(=O)CSc1nc(C2CC2)cc(C(F)(F)F)c1C#N	-0.7%	-12%	-11	7%	-12	2.9	-0.7
Cc1cc(N/N=C/c2cccc(Br)c2)nc2ccccc12	12%	-18%	4	20µM*	14	1.6	-0.1
COc1ccc(-c2nc(N)n[nH]2)cc1OC	5.0%	?	25	1%	-2	3.0	1.1
Cc1ccccc1C(=O)Oc1ccc(-c2csnn2)cc1	4.8%	.	23	3%	-11	-0.6	1.1
COc1ccc(CN(C)C(=O)c2ccc(NC(=O)CC3SC(N4CCCCC4)=NC3=O)cc2)c(OC)c1 (configuration not stated)	0.3%	-3.7%	.	.	-1	.	3.2
Cc1ccc(Cl)cc1N1CCN(CC(O)COC(C)C)CC1 (configuration not stated)	-0.1%	-0.5%	-20	3%	.	-0.4	.
COc1ccc(CC(=O)NNC(=O)c2cc(Cl)ccc2OC)cc1	?	28µM*	-25	.	-12	.	0.3
COc1ccc(C(C)=O)cc1CSc1nc(NCCc2ccccc2)c2ccccc2n1	0.5%	-0.2%	.	.	25	.	4.1
COc1ccccc1N1CCN(C(c2cccs2)C(C)NC(=O)c2cccnc2)CC1 (configuration not stated)	3.8%	1.7%	0	-2%	10	-3.4	-0.4
C/C(=N\NC(=O)C(N)=O)c1cccc(C(F)(F)F)c1	-1.0%	.	-17	10%	21	2.3	0.3
CCCCC(=O)NC(Nc1nc(C2CC2)cs1)(C(=O)OCC)C(F)(F)F (configuration not stated)	0.9%	-1.0%	-2	-11%	1	0.9	-1.1
CCCC1OC(c2ccco2)OCC1CC (configuration not stated)	-1.1%	.	.	.	16	.	0.4
CC(C)(C)N1CC(C(=O)O)CC1=O (configuration not stated)	0.6%	.	1	12%	-6	-7.1	0.4
O=C(NCC1CCCO1)c1ccc2c(=O)n(Cc3ccco3)c(SCC(=O)N3CCCC3)nc2c1 (configuration not stated)	-2.1%	-4.7%	0	25%	-6	3.0	1.4
CCOc1ccc(NC(=O)Cn2nc(SC)c(S(=O)(=O)c3ccccc3)c2N)cc1	-1.2%	-1.0%	.	.	3	.	-0.1
O=C(N1CCCCC1)C12CC3CC(C1)CC(C(=O)N1CCCCC1)(C3)C2	5.5%	4.2%	24	17%	9	3.2	0.3
CCN(CC)CCOC(=O)c1ccc([N+](=O)[O-])cc1	2.2%	0.9%	23	9%	15	1.6	-0.2
CC(C)CC(=O)N(c1nnc(-c2cccnc2)s1)C1CCCC1	1.5%	.	-23	8%	7	3.0	2.4
COc1ccc(C2/C=C\CN(S(=O)(=O)/C=C/c3ccccc3)[C@H](Cc3ccccc3)C(=O)N2Cc2ccc(F)cc2)cc1 (some centres not stated)	0.5%	0.2%	29	-27%	7	2.0	-0.3
CCc1ccc(NC(=O)CN2CCc3ccccc3C2)cc1	-1.3%	-4.5%	-19	15%	3	0.4	1.6
C[C@H]1CN([C@@H](C)CO)C(=O)CCCn2nncc2CO[C@@H]1CN(C)S(=O)(=O)c1cccc(C#N)c1	0.7%	0.2%	.	.	3	.	0.5
COc1ccc(CCNC(=O)CSc2nnc3ccc(-c4cccnc4)nn23)cc1OC	-0.2%	-0.9%	10	14%	.	-7.4	.
CCN(CC)C(=O)CSc1nnc(-c2cc3ccccc3cc2O)n1CC	6.4%[38.3 µM]	-3.1%	16	-7%	-8	0.4	-1.0
CC(=O)Nc1cccc(-c2cc(N3CCN(CCO)CC3)n3nccc3n2)c1	0.0%	-24%	.	.	3	.	0.5
CC(=O)Nc1ccc(S(=O)(=O)NCCc2c[nH]c3ccc(C)cc23)cc1	1.1%	1.1%	-31	24%	-7	-1.4	1.6
COc1cc2c(cc1OC)CN(C(=O)CCOc1ccccc1)CC2	4.9%	.	2	15%	-4	6.1	1.4
CCOc1ccc(OCc2ccc(C(=O)NCC3CCCO3)o2)cc1 (configuration not stated)	2.0%[38.3 µM]	-2.0%	29	-5%	21	-3.5	-0.2
Cc1cccc(/C=N/NC(=O)c2cc(-c3cccnc3)nc3ccccc23)c1	0.8%	.	3	33%[activator]	14	-2.5	-0.1
COC(=O)c1ccc(CSc2nc3ccccc3c(=O)n2-c2ccccc2)o1	-0.1%	-3.4%	-14	-9%	-13	5.9	0.1
O=C(CN1CCCCC1)N/N=C/c1cc2ccccc2nc1Cl	0.9%	.	-14	13%	-3	1.4	0.0
Cc1ccc(S(=O)(=O)NC2CC(=O)N(c3ccc4c(c3)OCCO4)C2)cc1 (configuration not stated)	0.4%	-4.3%	1	.	9	.	-0.3
O=C(CNC(=O)c1ccc(Cl)cc1)OCCCOC(=O)CNC(=O)c1ccc(Cl)cc1	-3.2%	-0.3%	-1	14%	-1	4.0	1.1
c1ccc(CCNc2cnccn2)cc1	-3.0%	3.7%	-1	3%	11	4.0	2.1
CCCOc1cc2c(C#N)c(N3CCCC3)nc(N)c2c(N)n1	3.0%	4.2%	.	.	17	.	-0.4
Fc1ccc2nc(C3CCCCN3Cc3nc(CC4CC4)no3)[nH]c2c1 (configuration not stated)	0.4%	.	-8	6%	2	-0.8	-0.3
Cc1ccc(-n2nc(C(=O)Nc3ccc(Br)cc3C)c(=O)n(C)c2=O)cc1	-0.9%	-4.8%	.	.	10	.	-0.2
c1ccc(C(c2ccccc2)c2noc(CN3CCN(CC4CC4)CC3)n2)cc1	0.0%	-0.3%	0	3%	-21	-2.4	0.6
CCCc1nc(SCC(=O)Nc2ccccc2)c2c(=O)n(C)c(=O)n(C)c2n1	1.7%	1.3%	13	9%	-3	2.9	0.1
CCC1CN(C(=O)N2CCC(C(=O)NCc3cccs3)CC2)c2ccccc2O1 (configuration not stated)	0.2%	0.9%	.	.	-24	.	3.8
